Compound activity as filed in PubChem BioAssay.
D2 ag – agonists of human D2 dopamine receptor (beta-arrestin). P14416. DiscoveRx PathHunter D2 beta-arrestin, luminescence, 90 min; 100% = 57 uM dopamine signal. activation, % (concentration not given with the values). 360,000 tested, 0.084% active. AID 624465; in the data active = activation above about 40%; inconclusive = about 15% to 40%; inactive = below about 15%; also: compound concentration not given in the record; the text of the record calls up to 30% inactive
Target sequence (P14416 whole entry, looked up): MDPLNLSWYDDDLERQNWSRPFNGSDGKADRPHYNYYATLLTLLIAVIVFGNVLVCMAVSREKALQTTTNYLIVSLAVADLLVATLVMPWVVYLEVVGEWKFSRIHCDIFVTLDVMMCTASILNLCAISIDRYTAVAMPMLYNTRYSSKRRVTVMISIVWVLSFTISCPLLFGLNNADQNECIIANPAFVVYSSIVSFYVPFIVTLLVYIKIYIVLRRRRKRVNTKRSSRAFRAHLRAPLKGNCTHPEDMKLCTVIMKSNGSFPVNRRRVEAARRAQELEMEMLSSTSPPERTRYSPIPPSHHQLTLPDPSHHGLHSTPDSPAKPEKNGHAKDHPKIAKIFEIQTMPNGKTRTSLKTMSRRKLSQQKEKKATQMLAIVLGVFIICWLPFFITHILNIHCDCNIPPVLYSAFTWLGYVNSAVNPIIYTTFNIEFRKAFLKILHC
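Agonist mode: compounds alone added to overnight-plated D2 PathHunter cells for 90 min at 37 C, with 57 uM final dopamine (EC100) defining full response. Beta-arrestin recruitment detected by chemiluminescent reagent, read after 1 h at ambient temperature.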
Sfp PPTase inh – inhibitors of Bacillus subtilis Sfp phosphopantetheinyl transferase | 310,000 tested, 3.5% active | AID 1490 | Biochemical Sfp PPTase activity, qHTS | Q9F4F7 | Potency, µM, without a hit: max response, negative = inhibition, hits mostly inhibitors; active = well fitted inhibition curve with a large enough effect; inconclusive = small, poorly fitted or top-dose-only effect, or another doubt; inactive = no such curve, though single readings can be large or run the other way;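 also: the enzyme is Sfp with the accession as filed and its product quenches rhodamine fluorescence; potency is read from the fitted curve at half-maximal effect; 0% = enzyme reaction without inhibitor and -100% = no enzyme wells; top concentration of the series not given in the record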
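After 15 min at room temperature with compound, 15 nM Sfp received 5 uM rhodamine-CoA plus 12.5 uM BHQ-2-ybbR (50 mM Hepes pH 7.6, 10 mM MgCl2). Rate came from the fluorescence difference over 30 min, ex 525/em 598 nm.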
Menin-MLL FL inh – displaces fluorescein MLL peptide from human menin; Fluorescence polarization, fluorescein-MLL peptide displacement from menin; 290,000 tested, under 10 active; FP activity change, % at 61.4 µM; inconclusive = falling polarisation curve, or a change in total fluorescence; inactive = total fluorescence flat and polarisation flat or rising; no compound was filed as active; the % refers to the polarisation; negative = inhibition;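 also: % of control where 0% means no effect; inhibitors lower the polarisation; unlabelled MLL peptide was the positive control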
gsp ag – activates gsp, the McCune-Albright syndrome mutation. gsp mutant cells, cAMP HTRF, 30 min; control for the full effect not named in the record. Potency, µM (titrated, usually from 76.9 µM), without a hit: at the top dose activation (cAMP increase), usual class: activators. 340,000 tested, 0.13% active; active = well fitted activation curve with a large enough effect; inconclusive = small, poorly fitted or top-dose-only effect, or another doubt; inactive = no such curve, though single readings can be large or run the other way; cell line not stated here;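 also: phosphodiesterase inhibitor Ro 20-1724 added with compounds to block cAMP breakdown; potency is read from the fitted curve at half-maximal effect; nearly all actives have a fitted effect of over 60% in size; about a fifth of the inactives were tested at one dose only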
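Cells in DMEM/10% FBS with G418 were pretreated with compounds in DMSO plus […] (300 uM stock) for 30 min at 37C. cAMP was measured by HTRF (cAMP-d2 plus anti-cAMP antibody-K) after 30 min at room temperature.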
ClpP mod – qHTS Assay for Activators of ClpP | AID 651965, 2013 | 340,000 tested, 1.9% active | Potency, µM (doses to about 57.5 µM), for the others: at the top dose activity change, negative = active | purified B. subtilis ClpP, FRET peptide cleavage, 20 min | ATP-dependent Clp protease proteolytic subunit (Bacillus subtilis (strain 168)), P80244; active = well fitted falling curve with a large enough effect; inconclusive = small, poorly fitted or top-dose-only effect; inactive = no such curve, though single readings can be large or run the other way; also: potency is read from the fitted curve at half-maximal effect; the source files actives as falling curves though it sought activators and does not explain the sign; nearly all actives have a fitted effect of over 65% in size; many hits overshoot -100%
Target sequence (P80244 whole entry, looked up): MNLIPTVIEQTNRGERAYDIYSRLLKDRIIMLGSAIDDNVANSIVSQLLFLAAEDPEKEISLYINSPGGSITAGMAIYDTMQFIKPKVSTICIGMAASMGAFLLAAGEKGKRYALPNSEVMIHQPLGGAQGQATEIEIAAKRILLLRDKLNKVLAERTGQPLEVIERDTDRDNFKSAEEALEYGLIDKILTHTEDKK
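Buffer: 100 mM Tris/HCl pH8, 100 mM KCl, 0.05% low protease BSA, 2.5% glycerol, 0.01% Tween-20. ClpP 10 microg/mL final; 20 min RT; delta FRET normalized to ADEP and DMSO controls.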
PINK1 expr mod – changes PINK1 expression | 410,000 tested, 0.2% active | AID 624263 | PINK1 immunofluorescence, high-content cytometry, 24 h | Potency, µM (series often up to 76.6 µM), for inactives: at the top dose activation (PINK1 increase), actives largely listed as activators; active = well fitted activation curve with a large enough effect; inconclusive = small, poorly fitted or top-dose-only effect; inactive = flat fitted curve, though single readings scatter; cell line not stated here;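 also: potency is read from the fitted curve at half-maximal effect; % of control where 0% means no effect; nearly all actives have a fitted effect of over 65% in size; a mitochondrial uncoupler was the plate control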
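A stable cell line was treated with compounds at 5 concentrations for 24 hours, with CCCP as control. PINK1 levels and mitochondrial localization were measured by immunofluorescence with mitochondrial, cell and nuclear markers after fixation, read by laser-scanning cytometry.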
gsp antag – antagonists of gsp mutant (McCune-Albright syndrome) | gsp-mutant cells, cAMP HTRF, 30 min; control for the full effect not named in the record | AID 624288 | Potency, µM (highest dose often 76.9 µM), for inactives: top-dose activity change, negative = inhibition, actives largely listed as inhibitors | 340,000 tested, 0.4% active; active = falling curve of any shape with a large fitted effect; inconclusive = falling curve, mostly with a smaller effect; inactive = flat or rising curve; cell line not stated here;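 also: intracellular cAMP measured with PDE inhibitor Ro 20-1724 present during compound exposure; potency is read from the fitted curve at half-maximal effect; % is scaled to controls: 0 for no effect and ±100 for the full control effect; nearly all actives have a fitted effect of over 65% in size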
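Measurement of cellular cAMP by homogeneous time-resolved fluorescence following a 30 min compound exposure at 37C. The PDE inhibitor […] was present throughout; the assay buffer was DPBS with 0.05% BSA and 0.005% Tween 20.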
* marks the source's active call; other numbers are inactive results; ? = inconclusive; . = no result given; & = joins results of further samples; [ ] = dose if it differs, or a comment.

SMILES	D2 ag	Sfp PPTase inh	Menin-MLL FL inh	gsp ag	ClpP mod	PINK1 expr mod	gsp antag
CNC(=O)CSc1nnc(-c2cccc(S(=O)(=O)N3CCOCC3)c2)n1-c1ccc(F)cc1	-3.0	15.8%	-0.5	-1.5%	-0.1%	-5.2%	-2.2%
c1csc(CNc2ncnc3nc[nH]c23)c1	-1.4	-10.9%	-1.6	-6.7%	-1.9%&-0.8%&-3.1%	1.3%&-0.3%&-0.2%	2.8%
Cc1cnc(=O)[nH]c1SCC(=O)Nc1nccs1	3.4	.	.	-2.9%[15.4 µM]	0.7%	3.3%	-12.4%
O=C(/C=C/c1ccc2c(c1)OCO2)N1CCOCC1	-3.1	12.9%	-0.5	18.8%	?	-0.5%	-4.0%
COc1cccc(NC(=O)COc2ccc3c(c2)CCC3)c1	-7.3	5.2%	0.4	2.9%	1.0%	2.7%	6.4%
CC(=O)Nc1ccc(NC(=O)C(C)OC(=O)CCCOc2ccc(Cl)c(C)c2)cc1 (stereo unspecified)	1.5	5.2%	.	-74.8%[inhibitor]	1.1%	3.3%	-9.5%
O=C(c1ccc2nccnc2c1)N1CCN(Cc2ccc3c(c2)OCO3)CC1	-0.1	-13.9%	-0.8	20.1%	-1.6%	?	7.4%
O=[N+]([O-])c1nn(-c2ccccc2)n(O)c1=NCc1ccc2c(c1)OCO2	6.7	7.5%	3.1	-10.9%	-6.1%	0.2%[38.3 µM]	2.7%
CC(C)COP(=O)(OCC(C)C)C(O)c1ccccc1F (stereo unspecified)	-0.8	22.8%	3.8	3.8%	-4.8%	4.0%	-2.6%
CCOC(=O)C1=NN(C(C)=O)C2(CC(=O)N(c3cc(C)cc(C)c3)C2=O)C1 (stereo unspecified)	0.0	12.5%	.	18.2%[15.4 µM]	-0.5%	-1.1%	-18.4%
COC(=O)c1cc2oc3ccccc3c2n1CC(=O)Nc1ccccc1OC	-1.7	17.2%	6.5	5.4%	-21.8%	9.7%	0.8%
C=CCn1cc(/C=C2/NC(=O)NC2=O)c2ccccc21	-4.9	-11.6%	12.9	3.0%[15.4 µM]	-1.4%	0.6%	1.5%
O=C(O)/C=C/C(=O)Nc1ccc(OCc2ccccc2)cc1	-10.4	7.4%	2.5	9.9%[15.4 µM]	.	-0.5%	2.4%
Cc1ccc(SCC(=O)Nc2ccc(N3CCN(c4ccccc4)CC3)c(F)c2)cc1	-2.1	19.4%	5.6	-79.1%[inhibitor]	-1.4%	2.3%	-2.9%
CCN(CC)CCCN(C(=O)c1ccccc1C)c1nc(-c2ccc(OC)cc2)cs1	-4.8	?	-4.6	22.9%	0.4%	5.2%	15.5%
CCN(CCO)c1ccc(N=Nc2cc(C)[nH]n2)cc1	-6.1	9.8%	26.1	-2.9%[15.4 µM]	1.8%	-0.5%	-12.1%
O=C(Nc1nc(=O)c2ccccc2s1)c1ccccc1	-2.5	50.1µM*	2.8	-3.6%	-5.5%	-0.8%	3.9%
NC(=O)C1(N2CCCC2)CCN(Cc2ccccc2)CC1	-2.8	.	.	3.4%	-2.8%	-2.1%	0.5%
Cc1ccc(NS(=O)(=O)c2cc(C(=O)NCCSc3ccc(C)cc3)ccc2C)cc1	-0.7	14.1%	-0.6	-33.8%[inhibitor]	-0.8%	-0.3%[38.3 µM]	-16.5%
CC(=O)N1CN(C2CCS(=O)(=O)C2)Cc2c1sc1c2CCCC1 (stereo unspecified)	-0.1	10.9%	1.2	-34.6%[inhibitor]	-9.4%	3.5%	6.3%
N#Cc1nc(/C=C/c2ccccc2)oc1NCCCN1CCOCC1	1.3	-1.8%	1.2	5.7%[15.4 µM]	-5.7%	-0.7%	7.3%
CCC(=O)c1ccc(OCC(=O)OCC(=O)N2c3ccccc3CC2C)cc1 (stereo unspecified)	-3.1	.	.	9.4%[15.4 µM]	.	3.1%	-12.1%
CC(C)CC(=O)Nc1nc(=S)ss1	-0.6	15.8µM*	4.5	11.0%	2.9%	7.1%	-1.7%
CC[C@@]1(C(=O)OC)N[C@H](CN(C)C(=O)Nc2ccc(F)cc2)[C@@H]2C(=O)N(C)C(=O)[C@@H]21	-2.1	.	.	.	-10.7%	0.3%	1.5%
CC(=O)NCCNC(=O)C1(C)Cc2c(-c3ccccc3)ccnc2O1 (stereo unspecified)	-6.2	.	.	.	-10.4%	0.9%	.
O=C(NN1CCOCC1)c1ccc([N+](=O)[O-])cc1	2.3	7.3%	0.1	3.4%	1.4%	2.8%	2.8%
Cc1ccccc1-n1c(SCC(=O)c2c(N)n(C)c(=O)n(C)c2=O)nnc1-c1cccnc1	-1.0	-7.4%	3.8	-39.7%[inhibitor]	.	-0.3%	9.4%
Cc1cc(C)c(C(=O)COC(=O)c2ccc(NC(=O)CC#N)cc2)cc1C	3.5	17.0%	?	-3.6%[15.4 µM]	.	0.2%	-7.4%
C=C1CN(CC(=O)OC)S(=O)(=O)c2ccccc21	-0.5	-14.7%&-7.2%	1.6&-0.4	.	-0.9%	-1.6%	7.2%
O=[N+]([O-])c1ccc(-c2nnc(-c3ccccc3)c(N3CCOCC3)n2)cc1	-1.1	10.8%	1.1	4.7%	5.3%	0.0%	0.4%
O=C(O)c1cc2n(n1)C(C(F)(F)F)CC(c1ccccc1)N2 (stereo unspecified)	-2.2	22.8%	0.2	-44.9%[inhibitor]	-1.1%	-2.4%	-8.2%
COCCn1c(-c2ccccc2)nc2ccccc21	-1.5	0.1%	2.0	-6.4%[15.4 µM]	0.5%	-0.9%	0.6%
CCOC(=O)c1nc2sc3c(c2c(=O)[nH]1)CCC(C)C3 (stereo unspecified)	0.0	-5.7%	5.9	-10.4%	3.7%	2.8%	-4.3%
COc1cc(/C=N/N=C/c2c[nH]c(=O)c(C#N)c2Nc2ccccc2)ccc1O	-1.2	16.8%	-1.1	-6.2%	0.5%	-1.5%	-1.1%
CCOC(=O)[C@@H]1[C@H]2COc3ccc(Br)cc3[C@@H]2N2C(=O)N(c3ccc(C(F)(F)F)cc3)C(=O)[C@@]12C	-1.5	21.0%	1.5	-0.2%	-0.1%	0.9%	-3.5%
CCCOc1ccc(F)cc1-c1cc(C(=O)NCc2ccccc2OC)[nH]n1	6.1	.	.	.	?	-0.1%	.
Cc1[nH][nH]c(=O)c1C(c1ccc(-c2ccc(Cl)c(Cl)c2)o1)c1c(C)[nH][nH]c1=O	0.3	56.2µM*	0.6	-9.7%	4.4%	0.4%	-11.4%
Cn1c(=O)c2cc(NC(=O)NCCc3ccccc3)ccc2n1Cc1ccc(F)cc1	6.8	.	.	.	4.2%	-0.1%	.
COc1cccc(C2C(C(=O)c3ccc(C)o3)=C(O)C(=O)N2c2cc(C)on2)c1 (stereo unspecified)	0.5	-0.6%	.	?	-0.7%	3.1%	-15.1%
O=C(NCCCN1CCCC1)c1ccc2c(c1)N(Cc1ccccc1F)C(=O)c1ccccc1S2=O (stereo unspecified)	-6.8	-0.4%	0.9	-19.1%	-2.3%	7.3%	20.6%
COc1c(OC(C)=O)ccc(/C=C/c2ccc3cccc(OCc4ccccc4)c3n2)c1[N+](=O)[O-]	-3.2	9.0%	3.5	0.0%	1.3%	2.2%	-13.6%
COC(=O)/C=C1/SC(=Nc2ccc(Cl)c(Cl)c2)NC1=O	-3.7	33.5%[activator]	2.7	-6.1%[15.4 µM]	.	5.3%	-28.2%
O=C(C[n+]1cc(-c2ccc(Cl)c(Cl)c2)n2c1CCC2)c1cccs1	-6.8	8.1%	-2.7	-4.7%[15.4 µM]	-0.8%	-0.9%	-2.4%
O=C(CSc1nnc(-c2csc3c2CCCC3)o1)Nc1ccccc1	-5.4	-0.3%	3.4	0.6%	1.1%	1.9%	8.9%
CCn1c2ccccc2c2cc(NC(=O)Cc3ccc(S(=O)(=O)N4CCOCC4)s3)ccc21	0.0	16.0%	6.1	-47.1%[inhibitor]	-1.5%	-0.2%	17.6%
COc1cc(OC)cc(C(=O)Nc2nc(CC(=O)NCc3ccccc3OC)cs2)c1	-4.1	.	.	-27.1%	1.5%	1.4%	-13.5%
CC1CCCCC1NC(=O)c1nnc(Cc2ccc(Cl)cc2)o1 (stereo unspecified)	-0.9	1.3%	5.2	-57.5%[inhibitor]	-0.5%	2.4%	-7.7%
Cc1ccccc1OCC(O)CN1C(=O)c2ccccc2C1=O (stereo unspecified)	-0.7	9.1%	-0.3	-25.9%	2.2%	0.6%	3.3%
CN1CCN(C(=O)c2ccc(CS(=O)Cc3ccc(Cl)cc3)o2)CC1 (stereo unspecified)	-2.7	12.2%	.	-26.3%	0.0%	0.0%	1.1%
CCOC(=O)CSc1ccc(S(=O)(=O)N2CCC(C)CC2)cc1[N+](=O)[O-]	-6.0	15.7%	5.1	-59.3%	6.2%	16.0%	-8.7%
Cn1c(CO)cnc1SCC(=O)c1ccc(Br)cc1	2.9	10.2%	2.7	-10.4%[15.4 µM]	.	-0.2%	14.3%
C=CCC1(CC=C)CCCN1Cc1nc(COc2ccccc2)no1	1.9	15.9%	12.9	-15.9%[15.4 µM]	.	23.5%	2.1%
Cc1oc2c(CN3CCCC3)c(O)ccc2c(=O)c1-c1ccc(Br)cc1	-1.8	6.7%	-0.4	29.3%	14.1µM*	.	-6.1%
Cc1ccc(-n2c(=S)sc3c(=O)n(-c4ccc(F)cc4)c(SCC(=O)O)nc32)cc1C	-3.3	12.2%	6.3	12.8%	.	0.5%	4.6%
CCOC(=O)/C(C#N)=C/c1ccc(-c2ccsc2C(=O)OC)o1	-0.6	-1.4%	?	2.8%	6.2%	25.1µM*	5.1%
CCC1CCCCN1CCCNC(=O)c1c(O)nc2c(C)cccn2c1=O (stereo unspecified)	0.7	4.9%	-1.5	?	3.6%&4.1%	0.8%&0.7%	9.4%
CN(Cc1nc(Cc2cccc(F)c2)no1)CC1CCOCC1	-2.8	-1.6%	1.7	7.2%[15.4 µM]	.	-0.8%	-3.2%
CCNC(=O)C1(C)CCCN(CCOc2ccc(Cl)cc2)C1 (stereo unspecified)	-6.4	.	.	.	-1.0%	0.5%	.
CN(Cc1ccon1)Cc1cn[nH]c1-c1ccc(-c2ccccc2)cc1	0.2	8.5%	3.4	-2.9%	.	-2.6%	-7.3%
CCOC(=O)c1cc2c(=O)n3ccccc3nc2n(Cc2ccccc2)c1=N	-0.6	14.6%	7.4	2.2%	15.8µM*	1.7%	2.1%
